# Screening results as filed in PubChem.
# StopGo FLuc: Primary qHTS Assay for Foot and Mouth Disease Virus Antivirals against NCGC Sytravon and CBC Compound Libraries: Firefly Luciferase Signal; HEK cells with a luciferase reporter of 2A StopGo recoding; Potency, µM (highest dose often 57.5 µM), for inactives: at the top dose signal change, negative = less light; 120,000 compounds, 0.23% hits; AID 1745856, 2022; active = well fitted falling curve with a large enough effect; inconclusive = small, poorly fitted or top-dose-only effect; inactive = no such curve, though single readings can be large or run the other way; note: nearly all actives have a fitted effect of over 60% in size; overnight with compound
# 2A Renilla: Primary qHTS Assay for Foot and Mouth Disease Virus Antivirals against NCGC Sytravon and CBC Compound Libraries: Renilla Luciferase Signal | 120,000 compounds, 0.32% hits | HEK cells with a luciferase reporter of 2A StopGo recoding | Potency, µM (highest dose often 57.5 µM), for inactives: at the top dose signal change, negative = less light | AID 1745857, 2022; active means well fitted falling curve with a large enough effect; inconclusive means small, poorly fitted or top-dose-only effect; inactive means no such curve, though single readings can be large or run the other way; note: nearly all actives have a fitted effect of over 55% in size; overnight with compound
# * = called active by the depositor; ? = inconclusive; & = joins results of further samples; [ ] = remark or other dose. % is set by controls: 0 for no effect and ±100 for the full control effect; potency is the fitted concentration of half-maximal effect.
SMILES | 2A Renilla | StopGo FLuc
CCOC(=O)c1cccc(NC(=O)c2cc3c(Cl)nc4ccc(C)cc4c3s2)c1 | -22% | 3%
CC1=C(c2ccc(C)c(C)c2)S(=O)(=O)N(Cc2ccc(C(=O)NCc3cccc(C)c3)cc2)C1=O | -3% | 4%
CCOCc1cccc(CN)c1 | -1% | 13%
COc1cc(Cl)c(C)cc1NC(=O)CCc1nc2cccnc2n1-c1ccccc1 | -18% | -13%
CN(C)Cc1ccc(CNC(=O)CCc2ncc(-c3ccc(F)cc3)o2)cc1 | -3% | 10%
COCCSc1nc2c(c(=O)n(C)c(=O)n2C)n1Cc1cccc(C)c1 | -22% | -26%
COc1ccc(C(CNC(=O)COc2cc(C)c(Cl)c(C)c2)N2CCCCC2)cc1 (stereo unspecified) | -9% | -16%
Cc1cc(C)c2cc(C(=O)OC(C)C(=O)N3CCC(C)CC3)[nH]c2c1 (stereo unspecified) | -6% | 11%
COc1ccccc1NC(=O)CCn1cnc2onc(-c3ccc(F)cc3)c2c1=O | -2%&26% | 1%&-4%
Nc1cc(Cl)ccc1OCc1ccccc1 | -2% | 154%[activator]
CCc1nnc(NC(=O)CSc2nc3c([nH]c4ccccc43)c(=O)n2-c2ccc(C)cc2)s1 | -2% | 21%
Cc1cc2cc(CN)ccc2[nH]1 | -4% | -5%
CC(C)(C)c1ccc(/C=N/NC(=O)c2ccccc2)cc1 | 25% | 4%
CCN(c1ccccc1)S(=O)(=O)c1ccc(NC(=O)c2cc(=O)c3cc(C)ccc3o2)cc1 | 25%&-8% | 36%&-18%
CN(C)CCN(Cc1ccc(Cl)cc1)C(=O)c1ccncc1 | -1% | 51%[activator]
CC(=O)Nc1nonc1-c1nc2ccccc2n1Cc1ccccc1Br | -5% | -5%
COc1ccc(N(C)C(=O)Cc2noc3ccccc23)c(OC)c1 | -8% | -2%
CCOc1ccc(NC(=O)C(=O)NCCc2ccccc2)cc1 | 1% | 6%
CCOCCCNC(=O)CCc1ccccc1 | 6% | 30%
Cc1ccc(S(=O)(=O)Nc2ccccc2SCc2cc(=O)n3cc(Cl)ccc3n2)cc1 | 16% | 60%[activator]
CCc1ccc(-n2c(=O)c3cccnc3n2CC(=O)Nc2ccccc2C(F)(F)F)cc1 | 3% | -16%
CCCCCCCOc1ccc(C(C)=O)cc1 | -6% | 79%[activator]
COc1ccc(NC(=O)CCc2c(C)nn(-c3ccc(N4CCCCC4)nn3)c2C)cc1Cl | -5% | 85%[activator]
NC(=O)Cc1csc(NC(=O)CCc2ncc(-c3ccc(Cl)cc3Cl)o2)n1 | 4% | 32%
Cc1ccc(/C=C/c2onc(C)c2S(=O)(=O)N2CCC(C(=O)Nc3cccc(C#N)c3)CC2)cc1 | -17% | -13%
O=C(CCC(=O)c1cccs1)Nc1ccccc1N1CCCCC1 | 22% | -2%
CN(C)c1ccc(CNC(=O)c2cccn2-c2nnc(N3CCCCC3)s2)cc1 | 43%[activator] | 8%
Cc1cccc(C(=O)Nc2ccc(O)c(-c3nc4cc(C)ccc4o3)c2)c1 | 8% | 11%
CCOc1cc(C(=O)Nc2ccc(S(=O)(=O)Nc3cc(OC)nc(OC)n3)cc2)cc(OCC)c1OCC | 40%[activator] | -5%
Cc1ccccc1CSc1nc2nc(C)c(Cc3ccccc3)c(C)n2n1 | 24% | 32%[activator]
CCOc1ccc(CCNC(=O)CN2C(=O)C(CC)Oc3ccccc32)cc1OCC (stereo unspecified) | -8% | -15%
CC(C)CCNC(=O)CN1C(=O)c2cccnc2Oc2ccccc21 | 8% | 43%[activator]
COc1cccc2cc(C(=O)/C=C/c3ccc(C#N)cc3)oc12 | 40%[activator][1.06 µM] | 11%
CCS(=O)(=O)c1ncc(N(Cc2ccccc2)Cc2ccco2)c(C(=O)Nc2ccc(C)c(C)c2)n1 | -9% | -11%
Cc1cc(C(=O)Nc2sc(C)c(C)c2C#N)cs1 | 6% | 66%[activator]
O=C(Nc1ccc(Br)cc1F)Nc1c(NC2CCCC2)c2ccccc2oc1=O | -10% | -8%
CC(NC(=O)CN1C(=O)c2cccnc2Oc2ccc(Cl)cc21)c1ccccc1 (stereo unspecified) | -6% | -15%
CCOC(=O)C1=C(CN2CCN(c3ccc(Cl)cc3)CC2)NC(=O)NC1c1ccc(OC)cc1 (stereo unspecified) | -17% | -13%
NCC(c1ccc(F)cc1)c1c[nH]c2ccccc12 (stereo unspecified) | 9% | 21%
O=C(c1nn(Cc2ccccc2)c(=O)c2ccccc12)N1CCN(c2ccc([N+](=O)[O-])cc2)CC1 | 16% | -4%
Cc1cccc(-n2cc(-c3ccccc3)c3c(N4CCN(CCO)CC4)ncnc32)c1 | 3% | -7%
COc1ccccc1NC(=O)COc1ccc(-c2nn(C)c(=O)c3ccccc23)cc1 | 27% | 28%
Cc1cc(C)nc(-n2nc(C)c3c2NC(=O)CC3c2cc(F)ccc2F)n1 (stereo unspecified) | -11% | -15%
O=C(OCc1c(Cl)cccc1Cl)c1ccc(CN2CCCC2=O)cc1 | -13% | -9%
COc1cc(NC(=O)c2cc(Cl)c(OC)c(Cl)c2)ccc1NC(=O)c1cc2ccccc2o1 | -12% | -13%
COc1ccc2oc(-c3ccc(NC(=O)c4ccccc4OC)cc3)nc2c1 | 12% | 99%[activator]
COc1cccc(/C=C2\N=C(SC)SC2=O)c1 | 14%[1.06 µM] | ?
CCn1c(=O)n(CC)c2cc(N3CCCC3)c(NC(=O)Nc3cc(OC)c(OC)c(OC)c3)cc21 | 126%[activator] | 26%
O=C(CN1CCc2ccccc2C1)N1N=C(c2cccs2)CC1c1cccs1 (stereo unspecified) | 72%[activator] | 10%
CCN1CCc2c(sc(NC(=O)c3ccc(S(=O)(=O)N4CCCC(C)C4)cc3)c2C(=O)OC)C1 (stereo unspecified) | 21% | -5%
Cc1ccc(N(CC(=O)N2CCN(C/C=C/c3ccccc3)CC2)S(C)(=O)=O)cc1 | -17% | -9%
Cc1n[nH]c(C)c1S(=O)(=O)N(CC(=O)NCc1ccc(F)cc1)c1ccc(C(C)C)cc1 | 40%[activator] | -5%
O=C(NC12CC3CC(CC(C3)C1)C2)C12CC3CC(C1)CC(c1ccccc1)(C3)C2 | 11% | 5%
O=C(Nc1ccc(Cl)cc1)c1nn(Cc2ccccc2)c(=O)c2ccccc12 | 8% | 15%
CCN(CC)CCOC(=O)c1ccc(NC(=O)Cn2ncc3c2-c2cc(C)ccc2OC3)cc1 | 15% | 2%
Cc1ccc(NC(=O)Cn2c(=O)c(C(F)(F)F)nc3ccccc32)c(C)c1 | -13% | -6%
O=C(CSc1n[nH]c(-c2ccccc2Cl)n1)Nc1cccc(F)c1 | ? | ?
CCOC(=O)NC(CN)c1ccccc1 (stereo unspecified) | 5% | 7%
COc1ccc(-c2nc(SCC(=O)NCC3CCCO3)c(-c3ccc(Cl)cc3)[nH]2)cc1 (stereo unspecified) | 4% | 14%
Cc1cc(N2CCN(c3ccccc3)CC2)n2nc(-c3ccccc3)nc2n1 | 22% | 36%

# Record cards, as listed above. Values in the order: 2A Renilla	StopGo FLuc
# `CCN1CCc2c(sc(NC(=O)c3ccc(S(=O)(=O)N4CCCC(C)C4)cc3)c2C(=O)OC)C1` (stereo unspecified) across the screens: 21%	-5%
# `O=C(Nc1ccc(Cl)cc1)c1nn(Cc2ccccc2)c(=O)c2ccccc12` across the screens: 8%	15%
# `O=C(NC12CC3CC(CC(C3)C1)C2)C12CC3CC(C1)CC(c1ccccc1)(C3)C2` across the screens: 11%	5%
# `Cc1ccc(NC(=O)Cn2c(=O)c(C(F)(F)F)nc3ccccc32)c(C)c1` across the screens: -13%	-6%
# `O=C(CSc1n[nH]c(-c2ccccc2Cl)n1)Nc1cccc(F)c1` across the screens: ?	?

# (continued)
SMILES | 2A Renilla | StopGo FLuc
CCOC(=O)C1CCN(C(=O)Cn2nc(C)n3c(cc4sccc43)c2=O)CC1 | -12% | -10%
Cc1cc(C)cc(NC(=O)c2cnc3sc(N4CCCC4)nn3c2=O)c1 | -24% | -11%
COc1ccc(CCNC(=O)c2cc3c(s2)-c2ccccc2OC3)cc1OC | -6% | -6%
Cc1ccc(-c2noc(-c3ccco3)n2)cc1 | 2% | 43%[activator]
Cc1ccc(C(=O)C2CCCCC2)cc1 | 12% | 0%
CC1=C(C(=O)Nc2ccccc2)C(c2ccc(C(=O)O)cc2)n2ncnc2N1 (stereo unspecified) | 13%&-7% | 34%&-10%[activator]
Cc1ccc(CNC(=O)c2nnn(CC(=O)Nc3cc(C)ccc3C)c2N)cc1 | -4% | -5%
CCN(CC)c1ccc(-c2nn3c(-c4ccccc4C)nnc3s2)cc1 | 1% | -13%
O=C(CN1CCN(c2ccc(C(F)(F)F)cn2)CC1)NC1CC1 | ? | -30%
O=C(Nc1c(C(=O)Nc2cccc(F)c2)oc2ccccc12)c1cc2ccccc2o1 | 2% | 223%[activator]
O=S(=O)(NCCO)c1ccc(Cl)cc1Cl | 20% | 8%
O=C(/C=C/c1ccc2ccccc2c1)c1ccccc1F | 4% | 182%[activator]
CC(C)NC(=O)c1ccccc1Cl | 4% | 16%
C(=N\N=C1c2ccccc2-c2ccccc21)/c1ccncc1 | -3% | 0%
CN(C)S(=O)(=O)c1cc(NC(=O)CN2CCc3sccc3C2c2ccccc2)ccc1Cl (stereo unspecified) | 13% | -23%
COc1ccc(C(=O)NCc2cccc(OC)c2)cc1 | 21% | 27%
COC(=O)CCNc1ccccc1 | -9% | -12%
Cc1c(C(=O)NCCN(C)C)oc2c1-c1nn(Cc3ccccc3Cl)cc1CC2 | 3% | -12%
COc1ccc(CCNC(=O)Cc2c(C)c3ccc(OC)c(C)c3oc2=O)cc1 | -5% | 5%
CCOC(=O)c1cccc(NC(=O)c2cc[n+]([O-])cc2)c1 | 2% | 21%
CSc1ccc(CNC23CC4CC(CC(O)(C4)C2)C3)cc1 | -1% | -3%
CC(C)n1nc(C(=O)N2CCCc3ccccc32)c2ccccc2c1=O | 15% | 0%
O=C(CSc1nnc2scc(-c3ccc(Cl)cc3)n12)Nc1ccc(F)cc1 | -3% | 4%
COc1cccc2cc(-c3nnc(SCC(=O)Nc4ccc(C)cc4)n3N)oc12 | 5% | 17%
CCOc1ccccc1CNC(=O)c1nn(C)c2c1CS(=O)(=O)c1ccccc1-2 | 33%[activator] | 9%
O=C(/C=C/c1cccc(F)c1)c1cccc(N2CCOCC2)c1 | 0% | 180%[activator]
CCc1ccc(NC(=O)C2=C(C)NC(Nc3nc4ccccc4o3)=NC2c2ccccc2)cc1 (stereo unspecified) | 0% | 4%
CC1CCN(C(CNC(=O)c2ccccc2C(F)(F)F)C(C)C)CC1 (stereo unspecified) | 45%[activator] | -9%
COc1ccc(-c2nc(CS(=O)CC(=O)NCc3cccnc3)c(C)o2)cc1 (stereo unspecified) | 35% | 20%
COc1ccc(-c2nnc(SCC(=O)N(C)Cc3ccccc3)o2)cc1OC | -7% | -10%
COC(=O)c1ccc(Cl)cc1NC(=O)N1CCCn2nc(C)cc21 | 13% | 3%
Fc1cccc(Cn2c(-c3cncs3)nc3ccccc32)c1 | 33%[activator] | 139%[activator]
COc1cc(C2Nc3ccc(C)cc3[C@H]3OCCC[C@@H]23)cc(Cl)c1OC (stereo partly specified) | 28% | 17%
CCOc1ccc(NC(=O)Cn2c3ncccc3c(=O)n2-c2ccc(CC)cc2)cc1 | -6% | -10%
CCS(=O)(=O)c1oc(-c2ccc(F)cc2)nc1S(=O)(=O)c1ccccc1 | -8% | ?
CC(=O)Oc1ccc2c(=O)c(Oc3cc(C)cc(C)c3)coc2c1 | 25% | 19%
CCn1cc(-c2cc(C(=O)O)c3ccccc3n2)c(C)n1 | -7% | 12%
O=C(CSc1nc(-c2ccccc2)[nH]c1-c1ccccc1)Nc1ccc2c(c1)OCCO2 | 78%[activator] | 7%
Cc1nc2nc(NC(=O)C(C)(C)C)[nH]n2c(=O)c1Cc1ccccc1 | 13% | 0%
Cc1coc2cc3o/c(=N/O)c4c(c3cc12)CCC4 | 9% | 0%
N#CC(C(=O)Nc1cccc(C(F)(F)F)c1)=C1CCCC1 | 11% | 0%
CC(C)OCc1ccc(CNC(=O)CC(C)c2ccccc2)cc1 (stereo unspecified) | 9% | 1%
CCN(CC)c1ccc(NC(=S)Nc2cccc(C)c2)cc1 | -1%[1.06 µM] | 164%[activator]
O=C(c1ccc2c(c1)N(Cc1ccc(F)cc1)C(=O)c1ccccc1S2(=O)=O)N1CCCCC1 | 21% | 0%
CCN(CC)c1ccc(-n2nc3cc(C)c(NC(=O)c4ccccc4F)cc3n2)cc1 | -6% | 3%
O=S1(=O)CCN2C(c3ccc(Cl)cc3Cl)=CSC2=N1 | 1% | 13%
Cc1ccc(-c2nc(S(=O)(=O)c3ccc(C)cc3)c(SCC(=O)Nc3ccc(F)cc3)o2)cc1 | 3% | -3%
CCOc1ccc(NC(=O)c2ccc(F)c(S(=O)(=O)N(CC)Cc3ccccc3)c2)cc1 | ? | ?
Cc1cccc(NC(=O)Cn2c(C)cc3ccccc32)c1 | -19% | -14%
COc1ccc(Nc2oc(-c3cccc(C)c3)nc2C#N)cc1 | 25% | 120%[activator]
O=C(Nc1ccc2nc(N3CCN(C4CCCCC4)CC3)cc(C(=O)O)c2c1)c1ccccc1F | 4% | 9%
COC(=O)C1CCCCN1S(=O)(=O)c1c(F)cccc1F (stereo unspecified) | 1% | 0%
O=C(NC1CCN(CC(F)F)CC1)c1cc2c(s1)CCCCC2 | 13% | 7%

# Not all compounds are listed; the hit share may differ from the screen's.
